Vaccinia mCherry: qHTS for Stage-Specific Inhibitors of Vaccinia Orthopoxvirus: mCherry Reporter Primary qHTS | Vaccinia virus mCherry reporter infection, fluorescence; about a quarter of the inactives have no number | 310,000 tested, 0.63% active | Potency, µM (series often up to 36.5 µM), for the others: at the top dose activity change, negative = inhibition, actives largely listed as inhibitors; active = well fitted inhibition curve with a large enough effect; inconclusive = small, poorly fitted or top-dose-only effect; inactive = no such curve, though single readings can be large or run the other way; tested in A549 cells; also: nearly all actives have a fitted effect of over 35% in size; inactives centre near -10
VACV Venus inh: qHTS for Stage-Specific Inhibitors of Vaccinia Orthopoxvirus: Venus Reporter Primary qHTS; 330,000 tested, 0.46% active; Potency, µM (series often up to 36.5 µM), for inactives: top-dose activity change, negative = inhibition, usual class: inhibitors; Vaccinia virus Venus reporter expression, fluorescence; active means well fitted inhibition curve with a large enough effect; inconclusive means small, poorly fitted or top-dose-only effect; inactive means no such curve, though single readings can be large or run the other way; tested in A549 cells; also: nearly all actives have a fitted effect of over 30% in size; inactives centre near -10
* hit, by the source's call; i = inactive; ? = inconclusive; . = not tested or not shown; & = joins results of further samples; [ ] = remark or other dose. % is scaled to controls: 0 for no effect and ±100 for the full control effect; potency is read from the fitted curve at half-maximal effect.

cpd | smiles | Vaccinia mCherry | VACV Venus inh
1 | Nc1cccc2c1C(=O)N(C(=O)c1ccc(S(=O)(=O)N3CCCCCC3)cc1)C2=O | -19% | -6%
2 | CCc1n[nH]c(=O)n1Cn1c(CC)n[nH]c1=O | i | -8%
3 | Cc1ccc(NC(=O)C2CCN(C(=O)c3ccccc3C)CC2)cc1 | i | -20%
4 | C=CCOn1c(=O)c(-c2ccccc2)[n+]([O-])c2ccccc21 | -5% | -5%
5 | COc1ccc(CNS(=O)(=O)c2ccc(-n3cnnn3)c(C)c2)cc1 | -19% | -10%
6 | CSc1ccc(/C=C/C(=O)OCC(=O)N2CCCCCC2)cc1 | ? | -23%
7 | Cc1ccccc1CSc1nc(-c2ccccc2)nc2c1Cc1c(CO)cnc(C)c1O2 | -5% | 4%
8 | Cc1nn(-c2ccccc2)c(Cl)c1/C=N/NC(=O)c1ccc(CNc2ccccc2)o1 | -15% | 0%
9 | CCN(C(=O)COc1ccc(C(C)=O)cc1)c1cccc2ccccc12 | -10% | -15%
10 | O=C(CCSCCc1ccccn1)Nc1ccc(Cl)cc1 | -10% | -10%
11 | O=C(NCCOc1ccccc1)c1cccc2c1C(=O)c1ccc(Cl)cc1S2(=O)=O | i | -12%
12 | CN(CC(=O)Nc1ccc(F)c(F)c1F)C(=O)c1ccc2c(c1)NC(=O)CS2 | -4% | -21%
13 | COc1cccc(C(=O)OCC(=O)N2CCc3ccccc32)c1OC | i | -5%
14 | CCC(=O)N1CCc2cc(S(=O)(=O)N3CCN(c4cc(Cl)ccc4C)CC3)ccc21 | -3% | -10%
15 | COC(=O)[C@H](Cc1ccccc1)NC(=O)Nc1ccc(S(N)(=O)=O)cc1 | -9% | ?
16 | CCSC(=O)N(CC)CC(=O)Nc1c(CC)cccc1CC | -5% | 4%
17 | CCOC(=O)c1csc(-n2nc(C)cc2C(F)(F)F)n1 | i | -10%
18 | CC1CC2(CC(CN(C3CCCCC3)C3CCCCC3)OC2=O)C(=O)O1 (centres undefined) | -6% | 2%
19 | CC(C)NC(=O)c1cnc(N2CCN(c3ccccn3)CC2)c2ccccc12 | -21% | -8%
20 | Cc1ccc(CCN2CC(C(=O)NCCN(C)C)CC2=O)cc1 (centres undefined) | -9% | -12%
21 | COc1ccc(-c2csc(C(NC(C)=O)c3ccccc3)n2)cn1 (centres undefined) | 7% | -8%
22 | O=C(NC1CCCCCC1)C1CCC(=O)N(Cc2ccccc2F)C1 (centres undefined) | -2% | -8%
23 | COC(=O)c1ccsc1NC(=O)C1=COCCO1 | i | -6%
24 | CCOc1ccc(S(=O)(=O)N2CCCC(C(=O)Nc3ccccc3)C2)cc1 (centres undefined) | -8% | -6%
25 | Cc1ccc(CN2CCC[C@]3(N[C@H](c4ccccc4)[C@@H]4C(=O)N(Cc5ccccc5)C(=O)[C@@H]43)C2=O)cc1 | -18% | -29%
26 | Cc1ccccc1OCC(=O)NCC(=O)OCC(=O)c1ccc(F)cc1 | 20% | -15%
27 | C=C1C(=O)O[C@@H]2[C@H]1[C@@H](OC(=O)/C(C)=C/C)C/C(C)=C\C(=O)/C=C(\C)[C@@H]2O | ? | 11µM*
28 | Cc1ccc(S(=O)(=O)N(CC(=O)NCC2CCCO2)Cc2ccc(F)cc2)cc1 (centres undefined) | -29% | -18%
29 | COc1cc(OC)cc(N(C(=O)c2ccco2)C(C(=O)NC2CCCC2)c2ccc(N(C)C)cc2)c1 (centres undefined) | . | -7%
30 | CC1(C)CC(CCNS(=O)(=O)c2ccccc2)(c2ccccc2)CCO1 (centres undefined) | i | -18%
31 | CC(CNc1ccc(Cl)cc1)(CNc1ccc(Cl)cc1)[N+](=O)[O-] | ? | -5%
32 | S=C(Nc1ccc(Cl)c(Cl)c1)NC1CCN(Cc2ccccc2)CC1 | . | 14µM*
33 | O=C(C[n+]1ccccc1)N1CCCc2ccccc21 | 0% | -11%
34 | COc1ccc(C2=NS(=O)(=O)N(C)C(C(=O)NCc3cccs3)=C2)cc1OC | 38%[activator] | 1%
35 | CCC(=O)N(Cc1cc2ccccc2[nH]c1=O)C(C)C | -15%[1.46 µM] | -7%
36 | COc1ccccc1NC(NC(=O)c1ccccn1)C(Cl)(Cl)Cl (centres undefined) | 0% | 0%
37 | CCc1ccccc1NC(=O)Cn1c(=O)n(Cc2ccco2)c(=O)c2ccccc21 | -9% | -8%
38 | CCCCN(C(C)=O)c1c(CC)nc2ccc(C(=O)NCCCN(C)C)cn12 | -22% | 3%
39 | CSc1nsc2nc(=O)c(/C=C3\C(C)=Nc4ccc(C)cc43)c(N)n12 | ? | -22%
40 | O=C1C2C3C=CC(C3)C2C(=O)N1c1ccc2ccccc2n1 (centres undefined) | . | -9%
41 | Cc1ccc(OCC(=O)Nc2ccc3nc(SCC(=O)N4CCOCC4)sc3c2)cc1C | -7% | -12%
42 | CCc1c(C)nc2c(-c3ccccc3)c(C)nn2c1Nc1ccc(NC(C)=O)cc1 | -22% | -28%
43 | CCOc1ccc(OCC)c(NC(=O)CN2CCN(c3cccc(C)c3)C(C)C2)c1 (centres undefined) | -19% | -16%
44 | CC(=O)OC(COc1ccccc1)Cn1cnc2cc(C)c(C)cc21 (centres undefined) | -10% | -11%
45 | CC(=O)Nc1ccc(C(=O)COC(=O)CCS(=O)(=O)c2ccccc2)cc1 | -9% | -10%

Full records, looked up by structure:
Cc1ccc(OCC(=O)Nc2ccc3nc(SCC(=O)N4CCOCC4)sc3c2)cc1C is listed as Vaccinia mCherry = -7%; VACV Venus inh = -12%
CC(=O)OC(COc1ccccc1)Cn1cnc2cc(C)c(C)cc21 (centres undefined) is listed as Vaccinia mCherry = -10%; VACV Venus inh = -11%

Remaining list, next part:
cpd | smiles | Vaccinia mCherry | VACV Venus inh
46 | CC1CC(C)(C)OC(C[N+]2(C)CCCCC2)O1 (centres undefined) | i[7.34 µM] | -18%[7.34 µM]
47 | CCc1ccc(CNC(=O)CCc2c(C)nn(-c3ccc(N4CCCC4)nn3)c2C)cc1 | -3% | -11%
48 | COC(=O)c1ccc(CC(=O)c2ccc(O)cc2O)o1 | . | -9%
49 | CCC(C(=O)O/N=C(\N)c1ccc(C)cc1)c1ccccc1 (centres undefined) | -24% | -8%
50 | COc1ccc(C2CC(=O)Oc3c2c(=O)n(C)c2ccccc32)c(OC)c1OC (centres undefined) | -13% | -9%
51 | COc1ccc2[nH]c(=O)c(-c3nnn(-c4ccc(Cl)nc4)n3)cc2c1 | ? | -23%
52 | COC(=O)[C@H](Cc1ccccc1)[C@@H](C)OS(N)(=O)=O | -18% | -10%
53 | CCOC(=O)CNC(=O)c1ccc(OCC(F)(F)F)cc1 | i | -3%
54 | Cc1nc2ccc(NC(=O)C3=NN(C)C(=O)CC3)cc2s1 | -1% | -11%
55 | COc1ccccc1Nc1nn2c(=O)c3ccc(C(=O)NC4CCC(C)CC4)cc3nc2s1 (centres undefined) | -4% | -5%
56 | C=CCn1c(NC(=O)c2ccc(Br)o2)c(S(=O)(=O)c2ccccc2)c2nc3ccccc3nc21 | -11% | -12%
57 | Cc1cccc(C(C)(C)C)c1OCCN1CCCC1 | -11% | -9%
58 | CCCNC(=O)C1CCC(Cn2c(=O)c3sccc3n(CC(=O)N(CC)CC)c2=O)CC1 (centres undefined) | -15% | -5%
59 | CC(=O)Nc1ccc(S(=O)(=O)NCc2nc(-c3ccccc3)no2)cc1 | i | -8%
60 | CCc1cccc(NS(=O)(=O)c2cccc3cccnc23)c1 | ? | -7%

The last four compounds of the section before open the next one.
cpd | smiles | Vaccinia mCherry | VACV Venus inh
57 | Cc1cccc(C(C)(C)C)c1OCCN1CCCC1 | -11% | -9%
58 | CCCNC(=O)C1CCC(Cn2c(=O)c3sccc3n(CC(=O)N(CC)CC)c2=O)CC1 (centres undefined) | -15% | -5%
59 | CC(=O)Nc1ccc(S(=O)(=O)NCc2nc(-c3ccccc3)no2)cc1 | i | -8%
60 | CCc1cccc(NS(=O)(=O)c2cccc3cccnc23)c1 | ? | -7%
61 | O=C(C(Cc1ccccc1)NS(=O)(=O)c1cccc2cccnc12)N1CCc2ccccc21 (centres undefined) | i | -10%
62 | CC/C(=N\N1CCN(C)CC1)c1c(O)[nH]c(=O)[nH]c1=O | -16% | -9%
63 | COc1ccc(C(C)=O)cc1COC(=O)CNC(=O)c1ccc(F)cc1 | i | -3%
64 | Cc1ccc(CNC(=O)c2c(O)nc3ccccn3c2=O)cc1 | -5% | 0%
65 | CCOc1ccc(Nc2oc(-c3ccco3)nc2C#N)cc1 | . | ?
66 | CCOC(=O)c1cc2c(=O)n3ccccc3nc2n(CC2CCCO2)c1=NC(=O)c1ccc(C)cc1 (centres undefined) | -13% | -15%
67 | COc1ccc(NC(=O)c2ccc(NS(=O)(=O)c3c(C)noc3C)cc2)cc1OC | -10% | -6%
68 | CCOC(=O)c1c(C)n(C)c2c1cc(OC(C)=O)c1ccccc12 | -13% | -10%
69 | CCn1c(SCC(=O)N2CCN(c3ccccc3)CC2)nc2c([nH]c3ccccc32)c1=O | -5% | -5%
70 | COc1cccc(NC(=O)CCSc2nnc3scc(-c4ccccc4)n23)c1 | -7% | -20%
71 | NC(=S)N/N=C/c1ccc(-c2ccc(Cl)c(Cl)c2)o1 | . | ?
72 | COc1ccc(CC(=O)NCCc2ccc(S(N)(=O)=O)cc2)cc1 | -9% | -6%
73 | C/C(=N\Nc1ccccc1)c1cc2ccccc2oc1=O | -2% | -13%
74 | CC(C)CCN1C(=O)c2ccc(C(=O)Nc3cccc(S(N)(=O)=O)c3)cc2C1=O | i | -6%
75 | CC1=C(C(=O)Nc2ccccc2)C(c2ccccc2Cl)n2ncc(C(=O)Nc3cccc(C)c3)c2N1 (centres undefined) | -3% | -18%
76 | CCc1ccc(N2C(=O)CS(=O)(=O)C23C(=O)N(Cc2ccccc2F)c2ccccc23)cc1 (centres undefined) | -1% | -3%
77 | CC1CCc2onc(C(=O)O)c2C1 (centres undefined) | i | -7%
78 | CCOc1ccc(-n2c([S-])c(C(=O)Nc3ccc(S(=O)(=O)N4CCOCC4)cc3)[n+]3cc(C(N)=O)ccc23)cc1 | -14% | 2%
79 | Cc1n[nH]c(=O)n1-c1ccc(C(C)C)cc1 | -2% | -1%
80 | CN(Cc1ccc(Cl)c(Cl)c1)C(=O)c1ccccc1SCC(=O)N1CCCC1 | -9% | -11%
81 | CCOC(=O)C1CCCN(C(=O)c2cc(F)cc(F)c2)CC1 (centres undefined) | i | -4%
82 | COc1ccc(-c2c3c(nc4sc(C(=O)Nc5ccccc5)c(N)c24)CCC3)cc1 | -12% | -4%
83 | CC(=O)c1cnc2scnn2c1=O | i | -5%
84 | COc1ccccc1CNC(=O)C(=O)NCC(c1cccs1)S(=O)(=O)c1ccc(F)cc1 (centres undefined) | -12% | -11%
85 | O=C1Nc2ccccc2N=C(c2ccccc2)C1Br (centres undefined) | -8% | -3%
86 | Cc1cc(N2CCN(S(=O)(=O)c3ccc(Cl)cc3)CC2)c2ccccc2n1 | ? | ?
87 | Cc1oc(-c2ccccc2Cl)nc1CS(=O)CC(=O)N1CCN(c2cccc(C(F)(F)F)c2)CC1 (centres undefined) | -21% | -16%
88 | COc1ccc(Cl)cc1NC(=O)c1cc(S(=O)(=O)NC2CCCCCC2)ccc1F | -25% | -13%
89 | CCc1nc(SCC(=O)NCc2ccccc2)c2c(=O)n(C)c(=O)n(C)c2n1 | i | ?
90 | Cc1ccc(Cl)cc1N1CCN(C(=O)CN2C(=O)c3cccc4cccc2c34)CC1 | i | -15%

Next section, overlapping the part above by two compounds.
cpd | smiles | Vaccinia mCherry | VACV Venus inh
89 | CCc1nc(SCC(=O)NCc2ccccc2)c2c(=O)n(C)c(=O)n(C)c2n1 | i | ?
90 | Cc1ccc(Cl)cc1N1CCN(C(=O)CN2C(=O)c3cccc4cccc2c34)CC1 | i | -15%
91 | CC(C)(C)n1nnnc1C(c1cccs1)N(Cc1cccnc1)Cc1ccco1 (centres undefined) | -27% | -23%
92 | CCOc1ccc(C2=CSC3=NCCN23)cc1 | -5% | -7%
93 | O=C(Cc1ccccc1)NS(=O)(=O)c1ccccc1 | 7% | 2%
94 | O=C(COC(=O)CCC(=O)c1cccs1)Nc1cccc(S(=O)(=O)N2CCOCC2)c1 | -20% | -4%
95 | COCCNC(=O)C(c1cccs1)N(C(=O)Cn1nnc2ccccc21)c1cccc(C(C)=O)c1 (centres undefined) | -3% | -17%
96 | Nc1ccc2c(c1)Cc1cc(Cl)c(Cl)cc1-2 | -22% | -27%
97 | CCOc1ccc(NC(=O)CN2C(=O)c3ccccc3Sc3ccc(C(=O)OC)cc32)cc1 | 6% | 13%
98 | O=C(/C=C/c1ccccc1)Nc1ccc2c(c1)OCCO2 | -3% | -2%
99 | O=C1c2ccccc2C(=O)c2[nH]c(=O)[nH]c21 | 1.3µM* | 2.8µM*
100 | Cn1c(N)c(C(=O)COC(=O)CCOc2ccc(C(C)(C)C)cc2)c(=O)n(C)c1=O | i | -10%
101 | Cc1ccc(S(=O)(=O)N2C[C@H]3C(=O)C[C@@H](c4ccccc4F)N(S(=O)(=O)c4ccc(C)cc4)[C@H]3C[C@H]2c2ccccc2F)cc1 | -9% | -16%
102 | O=C(O)C1C2C=CC(C2)C1C(=O)Nc1cccc(C(F)(F)F)c1 (centres undefined) | -19% | -5%
103 | CCCN(CCC)C1CCc2ccc(O)cc2C1 (centres undefined) | -19% | -6%&-3%
104 | CN(C(=O)Cn1cccc1C1=NC(c2ccccc2)CO1)c1ccccc1 (centres undefined) | -6% | -3%
